VACV Venus inh: vaccinia inhibition (Venus reporter); Vaccinia virus Venus reporter expression, fluorescence; Potency, µM (titrated, usually from 36.5 µM), for inactives: top-dose activity change, negative = inhibition, hits mostly inhibitors; 330,000 tested, 0.46% active; active means well fitted inhibition curve with a large enough effect; inconclusive means small, poorly fitted or top-dose-only effect; inactive means no such curve, though single readings can be large or run the other way; tested in A549 cells; also: nearly all actives have a fitted effect of over 30% in size; inactives centre near -10
Vaccinia mCherry: inhibitors of vaccinia virus infection (mCherry reporter signal). Vaccinia virus mCherry reporter infection, fluorescence; about a quarter of the inactives have no number. Potency, µM (series often up to 36.5 µM), without a hit: at the top dose activity change, negative = inhibition, actives largely listed as inhibitors. 310,000 tested, 0.63% active; active = well fitted inhibition curve with a large enough effect; inconclusive = small, poorly fitted or top-dose-only effect; inactive = no such curve, though single readings can be large or run the other way; tested in A549 cells; also: nearly all actives have a fitted effect of over 35% in size; inactives centre near -10
Starred values were filed as active, the others as inactive; i = inactive; ? = inconclusive; · = no result given; & = joins results of further samples; [ ] = another dose, or the depositor's remark. % is scaled to controls: 0 for no effect and ±100 for the full control effect; potency is read from the fitted curve at half-maximal effect.

No.	structure	VACV Venus inh	Vaccinia mCherry
1	COc1cccc(CNC(=O)CSC2=Nc3ccccc3C3=NC(C(C)C)C(=O)N23)c1 (centres undefined)	-18%	-15%
2	Cc1cccc(NC(=S)N2CCn3cccc3C2c2cccnc2)c1 (centres undefined)	2%	i
3	CNS(=O)(=O)c1ccc(-c2ccc(C=C3C(=O)NC(=O)NC3=O)o2)cc1	-1%	i
4	N#Cc1c(-c2ccccc2F)cc(C2CC2)nc1SCC(=O)c1cccs1	-12%	i
5	C/C(=N/NC(=O)c1ccco1)c1ccc(NC(=O)c2ccc(Br)o2)cc1	-14%	-13%
6	CCCOC(=O)C(C)n1nnc2sc(-c3ccccc3)cc2c1=O (centres undefined)	4%	-6%
7	O=C(NCc1ccccn1)[C@@H]1CCCN1C(=O)[C@@H]1CCCN1C(=O)c1c(F)cccc1F	-9%	24%
8	Cc1ccc(C(=O)NCc2nnc(SCC(=O)Nc3ccccc3)n2C)cc1	-6%	i
9	c1ccn2cc(C34CC5CC(CC(C5)C3)C4)nc2c1	-12%	-18%
10	Cc1cccc(OCCOCCn2c(-c3ccc(Cl)cc3)nc3ccccc3c2=O)c1C	10%	-4%
11	COc1ccc(COc2cc(-c3cccc(OC)c3)nc3ccc(NC(=O)c4cccnc4)cc23)cc1	-29%	-2%
12	CN(c1ccccc1)S(=O)(=O)c1cccc(NC(=O)Cc2c(F)cccc2Cl)c1	-24%	-23%
13	CCOc1ccc2nc(NC(=O)c3ccc(S(=O)(=O)N4CCOCC4)cc3)sc2c1	-9%	9%
14	c1ccc(COc2ccc(Oc3nc(N4CCCCC4)nc(N4CCOCC4)n3)nn2)cc1	-10%	-20%
15	Cc1ccc2[nH]c(=O)c(CN(Cc3ccc4c(c3)OCO4)Cc3nnnn3Cc3ccco3)cc2c1	-22%	·
16	COCc1nc2ccccc2n1CCOc1cccc(C)c1	-13%	-11%
17	Clc1ccc(-n2nnnc2SCc2cn3ccccc3n2)cc1	-20%	·
18	CCOC(=O)c1ccc(NC(=O)CN2C(=O)CC(c3ccc(C)c(C)c3)=Nc3ccccc32)cc1	-17%	-18%
19	Cc1c(C(=O)NCC2Cc3cccc(-c4cncnc4)c3O2)c(-c2ccccc2)nn1-c1ccccc1 (centres undefined)	10%	-14%
20	CCCn1c(N)c(C(=O)CSc2nc(C)cs2)c(=O)n(C)c1=O	?	-1%[1.46 µM]
21	COc1cc(/C=C/c2nc3ccccc3c(=O)[nH]2)ccc1O	-25%	-14%
22	CCC(Nc1ccc(-c2nc(-c3ccco3)no2)cc1[N+](=O)[O-])c1ccccc1 (centres undefined)	-6%	-8%
23	COc1ccc(NC(=O)Nc2nnc(-c3cccs3)s2)cc1	-2%	i
24	CCOC(=O)CCCCCC(=O)Nc1ccc2c(c1)C(=O)N([C@H](C)CO)C[C@@H](C)[C@H](CN(C)Cc1ccc3c(c1)OCO3)O2	-4%	-1%
25	O=C(NCc1ccccc1)C1CC(=O)N(c2ccc(OCC(=O)N3CCCC3)cc2)C1 (centres undefined)	-1%	·
26	COc1ccc(NS(=O)(=O)c2cc(N=Nc3c(O)[nH]c(=O)[nH]c3=O)ccc2Cl)cc1	-14%	i
27	COc1ccc(C2NC(=O)CS2)cc1 (centres undefined)	-30%	·
28	CC(=O)OC1c2c(ccc3ccc(=O)oc23)OC(C)(C)C1OC(=O)CC(C)C (centres undefined)	-13%&-9%	-2%&-2%
29	CCOC(=O)C1(Cc2ccc(Cl)cc2)CCN(C(=O)CCc2cnccn2)CC1	-4%	i
30	O=C(CCC(=O)c1ccc(F)cc1)Nc1cccnc1	-8%	·

Two of the compounds above, in transposed form:
#29 CCOC(=O)C1(Cc2ccc(Cl)cc2)CCN(C(=O)CCc2cnccn2)CC1
#25 O=C(NCc1ccccc1)C1CC(=O)N(c2ccc(OCC(=O)N3CCCC3)cc2)C1 (centres undefined)
entry no.,29,25
VACV Venus inh,-4%,-1%
Vaccinia mCherry,i,·

The main list resumes, starting 2 compounds before the break.
No.	structure	VACV Venus inh	Vaccinia mCherry
29	CCOC(=O)C1(Cc2ccc(Cl)cc2)CCN(C(=O)CCc2cnccn2)CC1	-4%	i
30	O=C(CCC(=O)c1ccc(F)cc1)Nc1cccnc1	-8%	·
31	Cc1cc(C)n(CCC(=O)N2CCN(S(=O)(=O)c3ccc(C)c(C)c3)CC2)n1	-15%	-26%
32	CSc1nsc(NC(=O)Cc2ccccc2)n1	-16%	-10%
33	O=C(Nc1ccc(CN2CCS(=O)(=O)CC2)cc1)c1ccc(C(F)(F)F)cc1	-14%	-26%
34	c1coc(CNc2ncnc3ccccc23)c1	?	?
35	Cc1cc(C)cc(OCC(=O)N(Cc2ccc(Cl)cc2)CC2CCCO2)c1 (centres undefined)	-15%	-12%
36	CC(Sc1nnc(-c2ccco2)o1)C(=O)NCCC1=CCCCC1 (centres undefined)	-8%	-13%
37	COc1cccc(/C=N/NC(=O)C(=O)N/N=C/c2cccc(OC)c2O)c1O	2%	-7%
38	CC(C)n1c(CNC(=O)c2ccccc2F)nnc1SCC(=O)NC1CCCCC1	-8%	-10%
39	CC(C(=O)Nc1ccc(S(=O)(=O)N2CCCC2)cc1)N1CCCC(C(N)=O)C1 (centres undefined)	-5%	-14%
40	CCc1ccc(-n2nc(CO)c(C(=O)NCc3ccccn3)n2)cc1	-2%	4%
41	COc1ccc(N2CCN(S(=O)(=O)CCNC(=O)Cc3ccc(-c4ccccc4)cc3)CC2)cc1	-11%	-15%
42	O=C(NCCNC(=O)c1ccccc1F)c1ccco1	-19%	i
43	COc1ccc(CN2CN(S(=O)(=O)c3cccs3)c3nc4ccccc4nc32)cc1	6%	i
44	CCc1nc(-c2ccc(C)c(S(=O)(=O)N3CCN(c4ccc(C(C)=O)cc4)CC3)c2)no1	-11%	-15%
45	COC(=O)c1sc2cc(C(F)(F)F)cnc2c1-c1ccccc1	-18%	-21%
46	Cc1cc(S(=O)(=O)N2CCN(c3ccccc3O)CC2)c(C)s1	-8%	6%
47	Cc1ccc(Cn2c(=N)n(CC(O)c3ccco3)c3ccccc32)cc1 (centres undefined)	?	·
48	COc1ccc(NC(=O)c2cc3c(-c4ccccc4F)nn(C)c3s2)c(OC)c1	-3%	-21%
49	CNC(=O)c1c(Br)cnn1-c1ccc(C)cc1	-1%	-5%
50	Cc1ccc(-n2nc(C)c(/C=N/NC(=O)c3cccs3)c2Cl)cc1	?	?
51	Cc1c2cnn(CC(=O)NCCc3ccccc3)c(=O)c2c(C)n1Cc1ccccc1	-7%	-10%
52	Cc1cc(=O)[nH]c(SCC(=O)NCc2ccco2)n1	5%	-21%
53	OC[C@@H]1CN(Cc2ccc3c(c2)OCO3)C[C@H](n2cnc3c(NC4CCC4)ncnc32)O1	-6%	-23%
54	CCn1c(SCC(=O)OC)nc2sc3c(c2c1=O)CCC3	-7%	i
55	CCOc1ccc(C(CC(=O)O)NC(=O)COc2ccccc2)cc1 (centres undefined)	-8%	-15%
56	COc1cccc(C(=O)NC(C)c2ccc(-c3ccccc3)cc2)c1OC (centres undefined)	-9%	-11%
57	CCOC(=O)Nc1cc(OC)cc2ccc(C)nc12	-11%	i
58	N#Cc1cccc(NC(=O)COC(=O)c2ccccc2C(=O)c2ccc(Cl)c([N+](=O)[O-])c2)c1	-7%	-12%
59	Cc1cccc(C)c1-n1nnnc1C(c1ccnc2ccccc12)N(CCN(C)C)Cc1ccccc1 (centres undefined)	-21%	-20%
60	COc1ccc(-c2cn(CCO)c(-c3ccncc3)n2)cc1	-4%	-22%

Part of the list above, as labelled records.
(46) Cc1cc(S(=O)(=O)N2CCN(c3ccccc3O)CC2)c(C)s1
  VACV Venus inh = -8% | Vaccinia mCherry = 6%
(47) Cc1ccc(Cn2c(=N)n(CC(O)c3ccco3)c3ccccc32)cc1 (centres undefined)
  VACV Venus inh = ? | Vaccinia mCherry = ·
(48) COc1ccc(NC(=O)c2cc3c(-c4ccccc4F)nn(C)c3s2)c(OC)c1
  VACV Venus inh = -3% | Vaccinia mCherry = -21%

Other results follow:
No.	structure	VACV Venus inh	Vaccinia mCherry
61	O=C(CSc1nc(C2CCCCC2)nc2ccccc12)N1CCCC1	-15%	-18%
62	CCOc1ccc(NC(=O)Cn2cc(C(=O)c3ccc(OC)cc3)c(=O)c3cc4c(cc32)OCO4)cc1	6%	1%
63	COc1cccc(N2CCN(C(=S)Nc3ccccc3)CC2)c1	-20%	-12%
64	CCNC(=O)c1c(O)c2ccccc2[nH]c1=O	-17%	-10%
65	O=C(c1ccc2c3c(cccc13)CC2)C1CCCN(CC2CC2)C1 (centres undefined)	-24%	?
66	O=C1CC2(CCN(C(=O)c3cccc([N+](=O)[O-])c3)CC2)Oc2ccccc21	-15%	-21%
67	CC(C)OCCCNC(=O)c1cccc2c1C(=O)c1ccc(Cl)cc1S2(=O)=O	-2%	-5%
68	CC(=O)N1c2ccc(S(=O)(=O)NCC3CCC(C(=O)Nc4ccc(F)cc4)CC3)cc2CC1C (centres undefined)	-23%	-18%
69	COC(=O)C1OCOC2C(C(=O)OC)OCOC12 (centres undefined)	-6%	i
70	CNc1ccccc1C(=O)OCC(=O)N1CCc2ccccc2C1	-18%	-1%
71	Cn1c(/C(C#N)=C/Nc2ccccn2)nc2ccccc21	-11%	-6%
72	CN(C)c1ccc(/C=C/C=C/c2ccnc3ccccc23)cc1	128%[activator]	-8%
73	CC(C)c1ccc(-c2c(C#N)c(N)nc(SCC(=O)N3CCCCCC3)c2C#N)cc1	-12%	i
74	CCCCc1nc2ccc(S(=O)(=O)O)cc2[nH]1	-7%	-19%
75	Cc1ccc(NS(=O)(=O)c2ccc(C)c(NC(=S)NCCN3CCOCC3)c2)c(C)c1	-13%	-22%
76	COc1ccc2cc(C(c3nnnn3C3CCCC3)N3CCOCC3)c3nnnn3c2c1 (centres undefined)	-10%	-2%
77	CCCCCOc1ccccc1C(=O)NCCCCCC(=O)O	3%	-9%
78	Cc1ccc(N2C(=O)[C@@H]3[C@H](C2=O)[C@H]2C=CC=NN2[C@@H]3C(=O)Nc2ccc(Cl)cc2)cc1	-9%	-6%
79	CCCCn1c(N)c(N(CC(C)C)C(=O)CSCc2cccc(C)c2)c(=O)[nH]c1=O	-17%	-3%
80	CCOc1cc(CNCCO)ccc1OCC(=O)NC(C)(C)C	2%	-12%
81	COC(=O)c1sc(NC(=O)C(C)c2ccccc2)nc1C (centres undefined)	?	-9%
82	COc1cccc(NC(=O)c2sc3nc(C)c(C(=O)Nc4ccc(C)cc4C)c(-c4ccco4)c3c2N)c1	3%	-3%
83	CCCc1nc(SCC(=O)Nc2nnc(CC)s2)c2c(C)c(C)sc2n1	-6%	i
84	COc1cc(OC)c(C#N)c(S(=O)Cc2ccccc2)c1 (centres undefined)	?	-1%
85	O=C(C1CCCN(Cc2cccnc2)C1)N1CCCCC1 (centres undefined)	-11%	·
86	Clc1ccc(CNc2cc(-c3ccccc3)nc3nncn23)cc1	-10%	-25%
87	Cc1c(/C=C/c2ccnc3ccccc23)ccc(N(C)C)c1C	-7%	-28%
88	C#CCOCCOCCOCCNc1nc(N2CCN(C(=O)C(Cc3cc4ccccc4[nH]3)n3cc(C(N)C(C)CC)nn3)CC2)nc(N2CCN(C(=O)C(Cc3cc4ccccc4[nH]3)n3cc(C(N)C(C)CC)nn3)CC2)n1 (centres undefined)	-14%	-14%
89	Cc1ccc(S(=O)(=O)N(C)N=O)cc1	?	-18%
90	Cc1nnc(NC(=O)CCC(=O)NC2CCCCCCC2)s1	-12%	i

A different layout for some results above.
Each structure is followed by: VACV Venus inh | Vaccinia mCherry
#66 O=C1CC2(CCN(C(=O)c3cccc([N+](=O)[O-])c3)CC2)Oc2ccccc21
→ -15% | -21%
#67 CC(C)OCCCNC(=O)c1cccc2c1C(=O)c1ccc(Cl)cc1S2(=O)=O
→ -2% | -5%
#68 CC(=O)N1c2ccc(S(=O)(=O)NCC3CCC(C(=O)Nc4ccc(F)cc4)CC3)cc2CC1C (centres undefined)
→ -23% | -18%
#69 COC(=O)C1OCOC2C(C(=O)OC)OCOC12 (centres undefined)
→ -6% | i

Compound activity: PubChem BioAssay, National Center for Advancing Translational Sciences (NCATS)
